# KCNQ2 inh: KCNQ2 potassium channel inhibitors, primary screen, cell-based, CHO-K1, FluxOR thallium flux, B-score (AID 2156); 20 min; stronger effect = lower value; only compounds with negative scores are shown here; some inactives read as strong as hits; hit rate 1.1% among 310,000; Potassium voltage-gated channel subfamily KQT member 2 (Rattus norvegicus), O88943; B-score at 10 µM;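 active means fluorescence ratio B-score at most minus 3 library SDs, with starting brightness B-score within 2 library SDs, cut at about -5.5 in these data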
# Target sequence (O88943 whole entry, looked up): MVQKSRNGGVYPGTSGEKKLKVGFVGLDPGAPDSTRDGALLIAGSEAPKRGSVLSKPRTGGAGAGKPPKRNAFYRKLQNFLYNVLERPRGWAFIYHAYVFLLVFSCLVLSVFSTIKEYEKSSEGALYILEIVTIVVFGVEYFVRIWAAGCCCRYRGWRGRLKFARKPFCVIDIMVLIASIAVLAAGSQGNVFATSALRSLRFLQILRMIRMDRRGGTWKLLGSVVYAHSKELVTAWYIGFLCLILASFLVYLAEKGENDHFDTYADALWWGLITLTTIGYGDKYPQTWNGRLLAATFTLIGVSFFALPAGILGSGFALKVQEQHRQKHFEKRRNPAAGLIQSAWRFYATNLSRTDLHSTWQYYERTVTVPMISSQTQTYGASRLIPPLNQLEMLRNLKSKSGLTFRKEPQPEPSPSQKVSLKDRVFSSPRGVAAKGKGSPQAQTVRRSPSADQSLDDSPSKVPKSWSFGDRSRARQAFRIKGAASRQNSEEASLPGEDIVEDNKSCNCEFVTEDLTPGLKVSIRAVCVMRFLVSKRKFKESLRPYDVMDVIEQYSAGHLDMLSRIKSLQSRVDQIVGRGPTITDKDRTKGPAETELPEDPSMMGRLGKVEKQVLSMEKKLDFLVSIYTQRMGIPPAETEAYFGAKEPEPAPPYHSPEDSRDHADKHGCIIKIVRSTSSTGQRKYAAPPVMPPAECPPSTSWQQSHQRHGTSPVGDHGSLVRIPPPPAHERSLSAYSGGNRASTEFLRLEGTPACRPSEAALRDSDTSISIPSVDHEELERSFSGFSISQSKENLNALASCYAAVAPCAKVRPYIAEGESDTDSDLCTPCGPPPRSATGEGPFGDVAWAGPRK
# KCNQ2 inh baseline: further read-out of KCNQ2 inh, marked with its call; B-score; measured here: initial fluorescence intensity artifact check;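 brightness before thallium and not channel activity; 0 = typical well and far values either way flag optical interference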
# * hit, by the source's call; i = inactive. A portion of the library; rates above refer to the full screens.
SMILES,KCNQ2 inh,KCNQ2 inh baseline
COc1ccc(CNC(=O)[C@@H](NC(=O)C2CCN(C(=O)[C@@H](N)CC(C)C)CC2)C(C)C)cc1,i,-0.02
Cc1cc(Cl)ccc1NC(=O)CN1C(=O)CSc2ccc(S(=O)(=O)N3CCOCC3)cc21,i,-0.72
COCCCNC(=O)C1CCN(S(=O)(=O)c2c(C)noc2/C=C\c2ccc(OC)cc2)CC1,i,-0.08
CCOc1ccc(NC(=S)NNC(=O)CC(C)O)cc1 (stereo not given),i,1.4
COCc1cc(C)nc(N2CCc3ccccc32)c1C#N,i,2
O=C(CSc1nnc(-c2ccccc2Cl)o1)Nc1ccccn1,i,-1.2
Cc1cc2ccccn2c1C(=O)c1nc(N2CCOCC2)ncc1Cl,i,-0.69
Cc1ccc(NC(=O)CN2C(=O)COc3ccc(S(=O)(=O)N4CCOCC4)cc32)cc1N(C)C,i,0.25
CCOc1cc(/C=C2/SC(=S)N(Cc3ccccc3)C2=O)ccc1O,i,3
c1ccc(-n2ncc3c(NCCN4CCCCC4)ncnc32)cc1,i,0.4
CCCN(CCC)C(=O)c1oc2ccccc2c1NC(=O)Cc1cccc(OC)c1,i,0.78
CCOC(=O)c1c[nH]c(=S)n1C,i,1.2
Cc1c(/C=C(\C#N)c2nn(-c3ccccc3)c(N)c2C#N)c2ccccc2n1Cc1ccc(F)cc1,i,1.1
CCC12CN3CC(CC)(CN(C1)C3c1ccc([N+](=O)[O-])o1)C2=O (stereo not given),i,0.09
CCOc1ccc(NC(=O)C2Cc3ccccc3CN2S(=O)(=O)CC)cc1 (stereo not given),i,0.02
Cc1ccc(SCc2ccc(C(=O)Nc3cccc([N+](=O)[O-])c3)cc2)cc1,i,-0.33
Cc1ccc(-c2nn(-c3ccccc3)cc2/C=C2\SC(=S)N(CC(=O)O)C2=O)cc1,i,0.03
CCOC(=O)C1(C)C=C(Nc2cccc(OC)c2)C(=O)N1c1ccccc1 (stereo not given),i,0.46
Cc1cccc2nc(CSc3ccc(Cl)cc3)cn12,i,-0.63
Cc1ccoc1C(=O)N1CCN(C(=O)c2occc2C)CC1,i,1.2
Cc1cnn(C(=S)NCc2ccc(Cl)cc2)c1,i,1.2
Cc1ccccc1-n1cc(CNC(=O)C2CCC(=O)N(C3CC3)C2)cn1 (stereo not given),i,0.09
CCC(=O)Nc1cc(-c2nn(C)c(=O)c3ccccc23)ccc1N1CCOCC1,i,-2.1
O=C(CCNC(=O)c1ccco1)Nc1ccc(OC(F)F)c(Cl)c1,i,-0.5
Cc1cc(C(C)(C)C)cc(C)c1C(=O)O,i,2.1
Cc1ccccc1C(=O)NC1CCN(Cc2nnnn2Cc2ccccc2)CC1,i,2.7
C=Cn1cc[n+](CC(=O)c2ccc(Br)cc2)c1,i,3.5
CCOc1ccc(/C=N\NC(=O)c2c(C)nc3cc(C)ccn23)cc1,i,-0.25
Cc1ccc(-n2c(C)cc(C(=S)N3CCOCC3)c2C)cc1C,-7.4*,0.28*
COc1cc(-c2cc(C(=O)NCCc3ccc(S(N)(=O)=O)cc3)c3ccccc3n2)cc(OC)c1OC,i,-1.8
CCN(CC)C1=CC(=[N+]2CCCC2)CC(C)(C)C1,i,2.4
O=S(=O)(Nc1ccccc1F)c1ccc2nsnc2c1,i,-0.66
CCN(CC)C(=O)CSc1nc2c(sc(=S)n2-c2ccc(C)cc2C)c(=O)[nH]1,i,-0.31
Cc1ccc(-c2nnc(SCC(=O)N3CCCC3)o2)cc1,i,0.04
C[N+]1(CC#CC(O)(c2ccccc2)c2ccccc2)CCCC1,i,-0.1
O=C(/C=C/c1ccc(F)cc1)NCCCN1CCN(CCCNC(=O)/C=C/c2ccc(F)cc2)CC1,i,-1.4

# Complete entries, looked up by structure. Values in the order: KCNQ2 inh, KCNQ2 inh baseline
# COc1cc(-c2cc(C(=O)NCCc3ccc(S(N)(=O)=O)cc3)c3ccccc3n2)cc(OC)c1OC reads i, -1.8
# Cc1cc(C(C)(C)C)cc(C)c1C(=O)O reads i, 2.1

# New compounds follow.
SMILES,KCNQ2 inh,KCNQ2 inh baseline
O=C(Nc1cc(S(=O)(=O)N2CCOCC2)ccc1N1CCOCC1)c1cc(=O)[nH]c2ccccc12,i,-1
Cc1nc(SCC(=O)NCC(F)(F)F)c2c(-c3cccs3)csc2n1,i,0.04
CCOc1ccc(/C(O)=C2/C(=O)C(=O)N(CC3CCCO3)C2c2ccc(C)o2)cc1 (stereo not given),i,3.4
CN(Cc1c(F)cccc1Cl)C(=O)c1cnc2ccccc2n1,i,1
COc1cc(C(=O)N(Cc2ccc(N(C)C)cc2)C2CCS(=O)(=O)C2)cc(OC)c1OC (stereo not given),i,-0.12
O=C(c1ccccc1Oc1ccccc1)N1CCN(c2ccccc2F)CC1,i,-0.16
CCCCn1c(=O)n(CC(=O)NCc2ccc(C)cc2)c(=O)c2c1nc(CO)n2CCC,i,0.85
COc1ccc(CCNC(=O)C2CC2)cc1,i,-3.5
CCCc1nn(-c2cc(Cl)ccc2OC)c2c1C(=O)CC(C)(C)C2,i,-0.41
COc1ccc(CNC(=O)C2(CC3CC(c4ccccc4)=NO3)CCN(C(=O)OC(C)(C)C)CC2)cc1 (stereo not given),i,0.24
Cc1ccnc(S(=O)(=O)Cc2ccc([N+](=O)[O-])cc2)n1,i,2.9
COc1ccc(-c2csc(NC3OC(=O)c4c3ccc(OC)c4OC)n2)cc1OC (stereo not given),i,-2.5

# In a second layout: entries from further up.
compound: Cc1nc(SCC(=O)NCC(F)(F)F)c2c(-c3cccs3)csc2n1
  KCNQ2 inh: i	KCNQ2 inh baseline: 0.04
compound: O=C(c1ccccc1Oc1ccccc1)N1CCN(c2ccccc2F)CC1
  KCNQ2 inh: i	KCNQ2 inh baseline: -0.16
compound: COc1ccc(CCNC(=O)C2CC2)cc1
  KCNQ2 inh: i	KCNQ2 inh baseline: -3.5
compound: COc1ccc(CNC(=O)C2(CC3CC(c4ccccc4)=NO3)CCN(C(=O)OC(C)(C)C)CC2)cc1 (stereo not given)
  KCNQ2 inh: i	KCNQ2 inh baseline: 0.24

# (list continues)
SMILES,KCNQ2 inh,KCNQ2 inh baseline
COc1ccc(C2=NN(C(C#N)c3ccc(OC)cc3)C(c3ccccc3)C2)cc1 (stereo not given),i,0.03
CCN(CC)c1ccc(C=Nc2ccccc2)c(O)c1,i,1.3
Cc1occc1C(=O)Nc1ccccc1C(=O)O,i,-0.76
Cc1c(C(=O)O)oc2c1C(=O)CC(C)(C)C2,i,0.68
Cc1ccc2nsnc2c1S(=O)(=O)N(CCO)Cc1cc2cc3c(cc2[nH]c1=O)OCCO3,i,-1.2
CCOC(=O)Nc1ccc(C(=O)/C=C/c2ccccc2)cc1,i,0.18
CCCN(CCC)S(=O)(=O)c1ccc(NC(=O)C2CCCO2)cc1 (stereo not given),i,-0.32
CC(Sc1nc(-c2ccccc2)cc(=O)[nH]1)C(=O)O (stereo not given),i,1.1
CC(C)(C)OC(=O)NCCCCCNC(=O)c1[nH]cnc1C(=O)N[C@@H](Cc1ccccc1)C(=O)OCc1ccccc1,i,-0.06
CC(=O)/C(CN1CCCCC1)=N\O,i,2.1
COc1ccc(Nc2nccc(-c3ccc(C#N)cc3)n2)cc1,i,0.71
CCOc1ccccc1C(=O)NCC(=O)NCCCSc1ccccc1,i,1
CCC(=O)NNC(=O)CSc1nnc(-c2ccccc2)c(-c2ccccc2)n1,i,0.88
CC1CCN(C(=O)NC(=O)c2ccccc2)CC1,i,3.6
CC(OC(=O)c1cc(Br)ccc1O)C(=O)NC1(C#N)CCCCC1 (stereo not given),i,2.5
CSc1ccccc1NC(=O)C1CC(c2c(F)cccc2Cl)=NO1 (stereo not given),i,0.56
COc1ccccc1N=c1oc2cc(O)ccc2cc1C(=O)NCC1CCCO1 (stereo not given),i,-1.1
COc1ccc(C(=O)Nc2ccc(N3CCN(C)CC3)cc2)cc1OC,i,1.1
C/C(N)=C(/C#N)C(=O)COC(=O)CC12CC3CC(CC(C3)C1)C2,i,0.03
COc1ccc(-n2c(=O)/c(=C\c3cccs3)s/c2=C(/C#N)C(=O)N2CCN(C)CC2)cc1,i,-0.18
COc1ccccc1N(CC(=O)NC1CCCCC1)C(=O)c1csnn1,i,0.3
CCCc1ccc2oc(C(=O)NCCc3nc(C(=O)OCC)cs3)c(C)c2c1,i,1.5
CCn1c(=O)cc(SCC(=O)N2CCN(Cc3ccc4c(c3)OCO4)CC2)c2ccccc21,i,-0.17
Cn1c2c(c(=O)n(C)c1=O)C(CC(=O)Nc1ccccc1F)C(=O)N2 (stereo not given),i,-0.31
N#C/C(=N\Nc1ccc(S(=O)(=O)N2CCCCCC2)cc1)C(N)=S,i,-0.16
CCCCCCC(C)n1[nH]c(=O)c2c(C)cc(C)nc21 (stereo not given),i,-0.58
Cc1cc(C)nc(SCc2cc(=O)c(OC(=O)c3cccc([N+](=O)[O-])c3)co2)n1,i,2.2
CCCCc1cc(=O)oc2cc(OCc3cc(OC)c(OC)c(OC)c3)c(Cl)cc12,i,0.1
O=C(COC(=O)/C=C/c1ccc(F)cc1)Nc1cc(C(F)(F)F)ccc1N1CCOCC1,i,-0.64
Brc1cc2c(cc1COc1ccc(-c3nn[nH]n3)cc1)OCO2,i,0.23
CC1CCCN(S(=O)(=O)c2ccc(Br)s2)C1 (stereo not given),i,-0.44
COCCCN(Cc1cccs1)S(=O)(=O)c1c[nH]c(C(=O)OC)c1,i,0.12
CC1CCCN(C(=O)CCS(=O)(=O)c2ccc3c(c2)NC(=O)C(C)S3)C1 (stereo not given),i,2.3
CN(C)c1ccc(C(=O)c2ccc(N(C)C)c(N)c2)cc1N,i,-0.88
Cc1cc(=O)n2nc(N3CCCC(C(=O)NCc4ccc5c(c4)OCO5)C3)sc2n1 (stereo not given),i,-0.09
COC(=O)c1ccc(Cl)c(NS(=O)(=O)c2ccc3c(c2)OCCO3)c1,i,-0.12
NC(=O)c1c(NC(=O)c2cnccn2)sc2c1CCCC2,i,2.8
N/C(Cc1ccc(Cl)cc1)=N\OC(=O)c1cccc2ccccc12,i,0.97
C(=N\NC(=Nc1ccccc1)c1ccccn1)/c1ccccn1,i,-0.15
O=C(CN1CCN(c2ccc(Cl)cc2)CC1)c1ccccc1,i,0.07
CCOC(=O)C(C(=O)OCC)c1cc(Br)c2noc3c2c1C(=O)c1ccccc1-3,i,10
Cc1cc(C(=O)Cn2nc(C(=O)O)c3ccccc3c2=O)c(C)n1CCc1ccc(Cl)cc1,i,1.6
O=C1N=C(N2CCC(Cc3ccccc3)CC2)S/C1=C/c1cn[nH]c1-c1ccccc1,i,0.52
O=C1NC2(CCCCCC2)C(=O)N1Cc1c(F)cccc1Cl,i,0.21
Cc1cc(N/N=C/c2ccc(F)cc2)nc(NCc2ccccc2)n1,i,0.43
CC(CCc1ccccc1)NC(=O)COC(=O)C1CCC(C(C)(C)C)CC1 (stereo not given),i,-0.03
Clc1ccccc1Nc1nc(-c2ccncc2)nc2ccccc12,i,-2.1
COc1ccc(OC)c(NS(=O)(=O)c2ccc(N3CCCC3=O)cc2)c1,i,0.07
O=C1C=C(N2CCCCC2)C2(CCCCC2)O1,i,1.5
COc1ccc(CCNC(=O)CCCN2C(=O)c3ccccc3C2=O)cc1OC,i,-0.07
CCCSc1nc2c(c(=O)n1-c1ccc(OCC)cc1)SCC2,i,1.3
NS(=O)(=O)c1ccc(CCNC(=O)C2CCCN2S(=O)(=O)c2cccc3nsnc23)cc1 (stereo not given),i,0.91
CCOC(=O)c1c(NC(=O)Cn2nc(C(F)(F)F)cc2C)sc2c1CCC2,i,1.9
C=CCn1c(CNS(=O)(=O)c2ccc(F)cc2)n[nH]c1=S,i,0.55
Cc1cccc(C)c1OCC(=O)OCC(=O)c1ccc2c(c1)NC(=O)CO2,i,-0.93
COc1ccc(S(=O)(=O)N(C)CC(=O)NCc2ccco2)cc1Cl,i,0.02
O=C(O)CSc1nc2ccc(C(=O)c3ccccc3)cc2[nH]1,i,1
COc1ccc(Br)cc1CN(C)CC(=O)NCCc1ccccc1,i,1.1
CC(CN1CCCCC1)OC(=O)C(C)(c1ccccc1)c1ccccc1 (stereo not given),i,0.81
COC(=O)[C@@H]1C2CCC(C(=O)Nc3ccccc3)(CC2)[C@@H]1C(=O)OC,i,1.9

# Single values from above:
# NS(=O)(=O)c1ccc(CCNC(=O)C2CCCN2S(=O)(=O)c2cccc3nsnc23)cc1 (stereo not given) in KCNQ2 inh baseline → 0.91
# C=CCn1c(CNS(=O)(=O)c2ccc(F)cc2)n[nH]c1=S in KCNQ2 inh baseline → 0.55
# O=C1C=C(N2CCCCC2)C2(CCCCC2)O1 in KCNQ2 inh baseline → 1.5

# The list continues:
SMILES,KCNQ2 inh,KCNQ2 inh baseline
O=C(CCCNS(=O)(=O)c1cccc2nsnc12)NCc1ccc(F)cc1,i,1.5
Cc1cc(C)cc(NC(=O)Cn2cnc3c(nnn3Cc3ccc(F)cc3)c2=O)c1,i,1.6
COCCCN1CC(=O)N2Cc3[nH]c4ccccc4c3C[C@H]2C1=O,i,2.6
CC1(C)NC(=O)N(CCCCSc2ccc(Cl)cc2)C1=O,i,-0.21
COc1ccc(N2CCN(C(=O)C3(S(=O)(=O)c4ccc(C)cc4)CC3)CC2)cc1,i,0.53
CCn1c(=O)n(CC)c2cc(N3CCCC3)c(NC(=O)c3ccc(F)cc3)cc21,i,0.05
O=C(Nc1ccc(N2CCCCC2)cc1)c1ccc2ccccc2n1,i,0.56
COC(=O)c1ccc(COC(=O)c2c(C)nn(Cc3ccccc3Cl)c2Cl)o1,i,-1.5
CCOC(=O)C1=C(C)N(C)C(=S)NC1c1cc(OC)ccc1OC (stereo not given),i,0.09
COC(=O)Cc1ccc(NC(=O)c2cccs2)cc1,i,-0.78
CSC(=CC(=O)c1ccccc1)SC,i,-0.94
c1ccc(SCc2nc(-c3ccccn3)no2)cc1,i,-1.2
Cc1cc(Sc2nc(N)ncc2[N+](=O)[O-])ncn1,i,-0.6
O=C(N/N=C/C1CC2CCC1C2)c1c[nH]c2ccccc12 (stereo not given),i,1.8

# High-throughput results as filed in PubChem.
